# GALR2 agonist – GALR2 (human) receptor agonism; O43603; GALR2-expressing cells, agonist activation read-out; activation, %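 (tested at 5 µM)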; 140,000 tested, 0.48% active;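 active = above mean plus 3 SD of all compounds, about 5% in these data, not always enough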;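 note: 0% = vehicle buffer wells and 100% = reference agonist at full effect; tested in CHO reporter cells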
# INS promoter inh – TRM-6 insulin promoter activity inhibition; TRM-6 cells (human fetal islet line), insulin promoter-eGFP reporter, imaging; reporter expression induced with tamoxifen; inhibition, % at 2 µM; 130,000 tested, 0.9% active; AID 1273;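 active = inhibition above the mean plus 3 SD, with well images judged a real hit on visual review, cut at about 60% in these data, passing the limit was not always enough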
# RGS16-Gao – modulates binding between human RGS16 and Galphao; O15492+P09471; bead-based flow cytometry RGS16-Galphao binding, fluorescence; actives lie on both sides; binding response (% of control), % at 10 µM; 220,000 tested, 0.38% active; AID 1441;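 active = below 25% or above 175%, edge rows of some plates excepted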;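 note: Galphao activated by GDP with aluminum fluoride before binding; 100% = wells without compound and 0% = beads without RGS; some results beyond the cut were filed as inactive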
# HSV augment – increases HSV replication in cells; 220,000 tested, 0.005% active; maximum fold increase; AID 1956; HSV replication augmentation in cells, fold increase;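 active = peak rise of 1.5-fold or more in the series; tested in PC3 cells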;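 note: first round at 10 µM; read as green reporter fluorescence; hits show the peak of a series up to 25 µM; 1 = signal of infected wells without compound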
# PKD1 inh – PKD1 (human) kinase inhibition; 200,000 tested, 0.056% active; inhibition, %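 (about 10 µM by stock and volumes)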; PKD1 kinase fluorescence polarization assay;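 active = inhibition of 50% or more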;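 note: controls were vehicle for no effect and a reference inhibitor for full effect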
# Target sequence (Q15139 whole entry, looked up): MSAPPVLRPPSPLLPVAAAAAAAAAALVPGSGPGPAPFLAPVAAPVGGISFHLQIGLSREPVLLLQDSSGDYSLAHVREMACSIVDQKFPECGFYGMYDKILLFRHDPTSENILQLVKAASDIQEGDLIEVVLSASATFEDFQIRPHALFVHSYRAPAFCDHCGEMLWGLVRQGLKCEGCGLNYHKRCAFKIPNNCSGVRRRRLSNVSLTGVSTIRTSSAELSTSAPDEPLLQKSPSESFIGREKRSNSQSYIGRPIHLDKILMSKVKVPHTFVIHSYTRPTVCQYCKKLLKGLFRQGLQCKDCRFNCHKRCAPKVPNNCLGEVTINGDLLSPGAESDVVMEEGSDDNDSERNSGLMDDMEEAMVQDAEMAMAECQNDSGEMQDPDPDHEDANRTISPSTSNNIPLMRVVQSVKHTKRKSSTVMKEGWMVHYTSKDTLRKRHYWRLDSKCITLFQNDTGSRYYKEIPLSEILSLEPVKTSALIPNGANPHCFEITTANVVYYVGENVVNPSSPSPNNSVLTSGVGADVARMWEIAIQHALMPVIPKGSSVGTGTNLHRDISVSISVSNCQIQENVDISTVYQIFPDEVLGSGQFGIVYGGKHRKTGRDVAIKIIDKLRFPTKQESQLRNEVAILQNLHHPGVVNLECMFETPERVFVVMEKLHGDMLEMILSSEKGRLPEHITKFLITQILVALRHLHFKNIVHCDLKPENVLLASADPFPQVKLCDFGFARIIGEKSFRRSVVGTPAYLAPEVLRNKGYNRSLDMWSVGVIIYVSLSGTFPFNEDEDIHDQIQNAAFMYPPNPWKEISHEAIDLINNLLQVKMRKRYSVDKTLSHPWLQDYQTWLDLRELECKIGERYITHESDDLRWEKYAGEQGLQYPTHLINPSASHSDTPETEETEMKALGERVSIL
# INS promoter inh cell count – also measured in INS promoter inh; calls as there; normalized cell count, %; measured here: cell count, toxicity; reference of the scale not given here;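 cells exposed to compound for 48 h; stained nuclei by imaging scaled within each plate; lower means fewer cells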
# HSV augment primary fold – recorded beside HSV augment, whose call it bears; fold increase; compound at 10 µM; measured here: primary screen fold increase 10 uM; tested in PC3 cells;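 GFP signal in the first replicate; 1 = infected wells without compound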
# * = called active by the depositor; i = inactive; / = no result given. Hits appear at their usual frequency; 1.3% or so of the library scored in one or more.
item	canonical_smiles	GALR2 agonist	INS promoter inh	INS promoter inh cell count	RGS16-Gao
1	COC(=O)C1=C(C)N=c2s/c(=C/c3cccs3)c(=O)n2C1c1cccs1 (configuration not stated)	-2.4	31	160	81
2	CCC(=O)Nc1ccc(Oc2ccc(NC(=O)CC)c(NC(=O)CC)c2)cc1	/	7	136	101
3	O=C(NCc1ccccc1)NCc1cccs1	/	/	/	112
4	CCOc1cc(/C=C2/C(=N)N3OC(C)=CC3=NC2=O)ccc1OC(=O)c1ccco1	/	/	/	102
5	CCOC(=O)CCCNC(=O)CCNC(=O)c1ccc(OC)cc1	-0.6	64	110	93
6	COc1cccc(NC(=O)CCN2CCN(c3ccccc3F)CC2)c1	-2.4	-45	39	104
7	Nc1nnc(C(=O)c2ccccc2N)s1	-2.0	30	93	/
8	CCOC(=O)c1c(NC(=O)C2CCN(S(=O)(=O)c3ccc(Cl)cc3)CC2)sc2c1CCCC2	-1.8	/	/	102
9	C/C(=N\NC(N)=O)c1ccc(Cl)s1	/	/	/	95
10	O=C(C1CCCCC1)N1CCN(S(=O)(=O)c2ccc(Br)cc2)CC1	-0.9	-18	109	87
11	O=c1c(F)cn(C2CCCO2)c(=O)n1Cc1ccccc1F (configuration not stated)	-0.6	-350	82	98
12	Cc1[nH][nH]c(=O)c1C(c1ccc(-c2ccc(F)cc2)o1)c1c(C)[nH][nH]c1=O	/	/	/	97
13	CCCSc1nnc(-c2cccc(S(=O)(=O)N(C)C)c2)n1-c1cc(OC)ccc1OC	-1.4	14	65	113
14	COc1ccc(-c2nc(C#N)c(NCc3ccccc3Cl)o2)cc1OC	-2.6	-71	120	101
15	CCN1CC2CCCC3(C1)C(=O)NC1(CCCCC1)N=C23 (configuration not stated)	-2.4	6	125	99

item	HSV augment	HSV augment primary fold	PKD1 inh
1	i	0.99	-6
2	i	0.93	-1
3	i	0.93	-3
4	i	1.1	-1
5	i	1.3	5
6	i	0.96	-5
7	i	0.93	4
8	i	0.97	9
9	i	0.94	/
10	i	0.88	3
11	i	0.87	-7
12	i	1.1	-3
13	i	0.98	-3
14	i	0.75	-3
15	i	0.86	-5

# Sorted by number of heavy atoms (ascending): some entries from above
item	canonical_smiles	GALR2 agonist	INS promoter inh	INS promoter inh cell count	RGS16-Gao
9	C/C(=N\NC(N)=O)c1ccc(Cl)s1	/	/	/	95
12	Cc1[nH][nH]c(=O)c1C(c1ccc(-c2ccc(F)cc2)o1)c1c(C)[nH][nH]c1=O	/	/	/	97
2	CCC(=O)Nc1ccc(Oc2ccc(NC(=O)CC)c(NC(=O)CC)c2)cc1	/	7	136	101

item	HSV augment	HSV augment primary fold	PKD1 inh
9	i	0.94	/
12	i	1.1	-3
2	i	0.93	-1

# Some values from the entries so far.
# Reading of O=C(C1CCCCC1)N1CCN(S(=O)(=O)c2ccc(Br)cc2)CC1 in INS promoter inh cell count: 109
# Reading of O=C(NCc1ccccc1)NCc1cccs1 in HSV augment primary fold: 0.93

# Back to the main list; the four compounds before the break are reprinted first.
item	canonical_smiles	GALR2 agonist	INS promoter inh	INS promoter inh cell count	RGS16-Gao
12	Cc1[nH][nH]c(=O)c1C(c1ccc(-c2ccc(F)cc2)o1)c1c(C)[nH][nH]c1=O	/	/	/	97
13	CCCSc1nnc(-c2cccc(S(=O)(=O)N(C)C)c2)n1-c1cc(OC)ccc1OC	-1.4	14	65	113
14	COc1ccc(-c2nc(C#N)c(NCc3ccccc3Cl)o2)cc1OC	-2.6	-71	120	101
15	CCN1CC2CCCC3(C1)C(=O)NC1(CCCCC1)N=C23 (configuration not stated)	-2.4	6	125	99
16	COC(=O)c1sccc1NC(=S)Nc1ccc(F)cc1F	/	5	109	111
17	Fc1ccc(NC(=S)N2CCn3cccc3C2c2cccnc2)cc1 (configuration not stated)	/	-19	100	106
18	Cc1nccn1Cc1cccc2ccccc12	-0.8	19	150	88
19	N/C(=N\OC(=O)c1ccc2c(c1)OCO2)c1ccc(Cl)cc1	-1.6	/	/	99
20	COc1ccc(CCNc2cc(C)nc3c(-c4ccccc4)cnn23)cc1OC	0.3	62	120	95
21	CN(C)S(=O)(=O)Oc1ccsc1C(=O)Nc1ccc(Cl)cc1	-0.3	-20	84	102
22	COc1ccc(N(C)S(=O)(=O)c2cccc(C(=O)Nc3nnc(C4CC4)s3)c2)cc1	/	0	72	76
23	O=C(COC(=O)C1=COCCO1)NCCCc1ccccc1	-2.8	/	/	99
24	Cc1nc2ccccc2n1CC(=O)NCc1ccccc1	-0.5	52	84	99
25	COc1ccc(C2c3c(ncn(CCCN4CCOCC4)c3=N)Oc3ccc4ccccc4c32)cc1OC (configuration not stated)	/	/	/	128
26	COc1ccc(NC(=O)Cc2cccc(F)c2)cc1S(=O)(=O)Nc1ccccc1Cl	/	/	/	109
27	Cc1cc(C(=O)CSc2nnc(-c3ccccc3)o2)c(C)n1CC1COc2ccccc2O1 (configuration not stated)	-1.6	19	70	102
28	O=S(=O)(Cc1ccccc1)N1CCCCCC1	-2.6	67	12	100
29	CCc1cccc(NC(=O)NC2CCCCC2)c1	-2.0	61	135	70
30	Cc1ccc(C(=O)COC(=O)CCCC(=O)Nc2cc(C(F)(F)F)ccc2Cl)cc1C	-0.6	21	95	11*

item	HSV augment	HSV augment primary fold	PKD1 inh
12	i	1.1	-3
13	i	0.98	-3
14	i	0.75	-3
15	i	0.86	-5
16	i	0.97	-3
17	i	1.1	-2
18	/	/	-4
19	i	0.85	0
20	i	0.99	2
21	i	0.85	15
22	i	0.9	-1
23	i	0.91	6
24	i	1.1	-10
25	i	0.7	/
26	i	1	/
27	i	1	0
28	i	1	-10
29	i	0.87	-4
30	i	1.1	-11

# (list continues)
item	canonical_smiles	GALR2 agonist	INS promoter inh	INS promoter inh cell count	RGS16-Gao
31	COc1ccc(C(=O)OCC(=O)Nc2ccc(Cl)c(C(F)(F)F)c2)c(OC)c1OC	-0.2	/	/	102
32	CC(=O)NNS(=O)(=O)c1ccccc1[N+](=O)[O-]	-1.0	11	89	104
33	Cc1c(C(=O)/C=C/N(C)C)nnn1-c1ccc(Cl)cc1Cl	/	/	/	97
34	COc1ccc(CCNC(=O)c2[nH]c(C)c(C(C)=O)c2C)cc1	-2.1	26	64	94
35	O=C1N=c2ccccc2=C1c1sc(=S)n(-c2ccc(O)cc2)c1O	/	/	/	99
36	CC(C)c1csc(CN2CCN(Cc3ccc(F)c(F)c3)C(CCO)C2)n1 (configuration not stated)	/	/	/	101
37	Cc1ccc(CCN2CC(C(=O)NCCN3CCCCCC3)CC2=O)cc1 (configuration not stated)	-3.0	33	134	103
38	COc1ccc(NS(=O)(=O)c2cc(NC(=O)C3CCCCC3)ccc2N2CCOCC2)cc1	/	-9	90	102
39	COC(=O)c1ccc(CN2CCC(CO)(Cc3ccccc3Cl)CC2)cc1	/	-13	112	106
40	CCCn1c2ccccc2c2nnc(SC(CC)C(=O)Nc3sc4c(c3C#N)CCCC4)nc21 (configuration not stated)	-1.9	-32	104	108
41	CNS(=O)(=O)c1cnccc1N1CCN(c2cccc(C)c2)CC1	-3.3	6	143	96
42	CN1CCN(Cc2nc3ccccc3c(=O)n2Cc2nc(-c3cccc([N+](=O)[O-])c3)cs2)CC1	/	/	/	102
43	COc1ccc(/C=N/OCc2nc3c4c(ncn3n2)Oc2ccc3ccccc3c2C4c2ccccc2)cc1 (configuration not stated)	-4.0	/	/	103
44	O=C(c1ccc(F)cc1)N1CCN2C(=O)c3ccccc3C12c1ccc(Cl)cc1 (configuration not stated)	/	15	79	101
45	C/C(=N\NC(=O)c1csc(C)c1C)c1ccc(Cl)s1	-3.5	-43	100	100

item	HSV augment	HSV augment primary fold	PKD1 inh
31	i	0.98	-7
32	i	0.99	-11
33	i	1.1	/
34	i	0.94	-4
35	i	0.87	/
36	i	1.2	-3
37	i	0.86	5
38	i	0.99	3
39	i	0.86	-4
40	i	0.94	-1
41	/	/	-3
42	i	0.8	-3
43	i	1.1	8
44	i	0.89	7
45	i	0.86	-1

# (next part)
item	canonical_smiles	GALR2 agonist	INS promoter inh	INS promoter inh cell count	RGS16-Gao
46	COc1ccccc1N1CCN(S(=O)(=O)/C=C/c2ccccc2)CC1	-1.8	-28	117	102
47	CCOC(=O)/C=C1\SCC(=O)N1CC(=O)NC(C)c1ccc(F)cc1 (configuration not stated)	-1.7	/	/	134
48	Cc1cccc(NC(=O)CSc2nc3[nH]ncc3c(=O)[nH]2)c1	-1.3	-32	111	91
49	Cc1ccc(Cl)cc1N1CCN(Cc2cc(=O)n3ccsc3n2)CC1	/	-54	99	102
50	Cc1cc(C)n(Cc2ccccc2F)c(=O)c1C#N	0.3	30	128	77
51	Cc1c(NS(=O)(=O)c2ccc(N3CCCCC3)c([N+](=O)[O-])c2)c(=O)n(-c2ccccc2)n1C	-1.9	-7	51	91
52	Cc1ccc2nc(-c3ccncc3)cc(-c3ccccc3)c2c1	-3.5	-233	109	99
53	O=c1[nH][nH]c(=S)n1C1CCCCC1	/	/	/	75
54	COc1cc2c(cc1OC)C(C(=O)NCC1COc3ccccc3O1)C(c1cccnc1)N(C)C2=O (configuration not stated)	-2.1	-28	89	117
55	CC(/C=C1\SC(=O)N(CCCC(=O)O)C1=O)=C\c1ccccc1	0.9	57	67	83
56	CC(C)(Oc1ccc(Cl)cc1)C(=O)NC1=NN(c2ccccc2)C(=O)C1	0.2	/	/	104
57	Clc1ccc(-n2nnnc2CN2CCOCC2)cc1	-2.4	4	113	71
58	CCC(C)N1C(=O)S/C(=C/c2ccc(Sc3nc4ccccc4[nH]3)o2)C1=O (configuration not stated)	0.3	/	/	102
59	CCOc1cc(C(=O)N/N=C/C2CC=CCC2)cc(OCC)c1OCC (configuration not stated)	-0.2	7	118	99
60	CCOC(=O)CN(C(=O)CSc1nnc(-c2ccc(OC)c(OC)c2)o1)c1ccc(F)cc1	-1.2	/	/	100

item	HSV augment	HSV augment primary fold	PKD1 inh
46	i	0.93	-10
47	i	1.2	3
48	i	0.93	1
49	i	1	0
50	/	/	3
51	i	1.1	5
52	i	1	3
53	i	0.83	/
54	i	0.85	-8
55	i	1	-15
56	i	1	-2
57	i	0.96	-16
58	i	1	-1
59	i	0.61	-1
60	i	0.93	-9

# Screens deposited in PubChem by several laboratories.
